SARS PLP yeast – qHTS of Yeast-based Assay for SARS-CoV PLP | AID 485353, 2010 | S. cerevisiae expressing SARS-CoV PLpro, growth rescue; control for the full effect not named in the record | Potency, µM (titrated, usually from 32.9 µM), for the others: at the top dose activity, positive = growth rescue | 0.19% of 330,000 active; further: 0% is about no effect; nearly all actives have a fitted effect of over 55% in size; growth read by luminescence after 48 h
MARV entry inh – qHTS for inhibitors of binding or entry into cells for Marburg Virus. Marburg virus pseudotyped entry inhibition, cell reporter; control for the full effect not named in the record; about a third of the inactives were read at about 46 µM. Potency, µM (series often up to 37.8 µM), for inactives: top-dose activity change, negative = inhibition, most hits filed as inhibitors. 1.8% of 300,000 active; active = well fitted inhibition curve with a large enough effect; inconclusive = small, poorly fitted or top-dose-only effect, or effect the other way; inactive = flat fitted curve, though single readings scatter; tested in HEK293 cells; about a fifth of its hits are not listed in these tables; further: on the % scale 0 is the no-effect control and ±100 the full control effect; luciferase read-out
Lassa entry inh – qHTS for Inhibitors of binding or entry into cells for Lassa Virus; 1.2% of 300,000 active; Lassa virus pseudotype entry inhibition, cell reporter; control for the full effect not named in the record; AID 540256, 2011; Potency, µM (top dose mostly 37.9 µM), for inactives: top-dose activity change, negative = inhibition, actives largely listed as inhibitors; active means well fitted inhibition curve with a large enough effect; inconclusive means small, poorly fitted or top-dose-only effect, or effect the other way; inactive means flat fitted curve, though single readings scatter; tested in HEK293 cells; further: on the % scale 0 is the no-effect control and ±100 the full control effect; nearly all actives have a fitted effect of over 50% in size; luciferase read-out
Cruzain Triton – qHTS Assay for Promiscuous and Specific Inhibitors of Cruzain (with detergent); Cruzipain (Trypanosoma cruzi), P25779; purified cruzain, Z-FR-AMC fluorescence, 0.01% Triton; Potency, µM, for the others: max response, negative = inhibition, usual class: inhibitors; 0.43% of 200,000 active; active means well fitted curve in the direction sought with a large enough effect; inconclusive means small, poorly fitted or top-dose-only effect, or another doubt; inactive means no such curve, though single readings can be large; an effect the other way counts as inactive or inconclusive;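 further: plate controls were neutral wells for no effect and buffer without enzyme for full effect; nearly all actives have a fitted effect of over 40% in size; top concentration of the series not given in the record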
Target sequence (P25779 123-467 limits assumed): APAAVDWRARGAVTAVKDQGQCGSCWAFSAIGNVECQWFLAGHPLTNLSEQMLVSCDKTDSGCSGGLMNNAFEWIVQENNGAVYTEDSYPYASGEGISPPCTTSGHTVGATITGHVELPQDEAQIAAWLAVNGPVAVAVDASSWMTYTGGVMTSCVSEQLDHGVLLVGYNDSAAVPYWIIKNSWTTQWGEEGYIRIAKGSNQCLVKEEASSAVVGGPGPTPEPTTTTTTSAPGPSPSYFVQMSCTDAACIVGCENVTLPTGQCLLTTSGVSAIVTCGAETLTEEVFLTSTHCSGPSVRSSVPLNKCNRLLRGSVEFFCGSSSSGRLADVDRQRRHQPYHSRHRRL
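Steps: dispense cruzain (1.5 nM final) in acetate buffer pH 5.5 with DTT and 0.01% Triton X-100; pin-transfer compounds; incubate 15 min RT; add Z-FR-AMC (2 uM final); read fluorescence every 30 s, using the 60 s intensity change.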
2A StopGo – High Throughput Screening for Foot and Mouth Disease Virus Antivirals. human cells with a luciferase reporter of 2A StopGo recoding; control for the full effect not named in the record. Potency, µM (highest dose often 57.9 µM), for inactives: top-dose signal change, negative = less light. 1.2% of 410,000 active; active = well fitted falling curve with a large enough effect; inconclusive = small, poorly fitted or top-dose-only effect; inactive = no such curve, though single readings can be large or run the other way; tested in HEK293T cells; further: on the % scale 0 is the no-effect control and ±100 the full control effect; nearly all actives have a fitted effect of over 45% in size; luciferase light after 4 h
Cruzain inh noDet – qHTS Assay for Promiscuous and Specific Inhibitors of Cruzain (without detergent); Cruzipain (Trypanosoma cruzi), P25779; purified cruzain, Z-FR-AMC fluorescence, no detergent; Potency, µM, for the others: max response, negative = inhibition, usual class: inhibitors; 2.3% of 200,000 active; AID 1476, 2009; active means well fitted curve in the direction sought with a large enough effect; inconclusive means small, poorly fitted or top-dose-only effect, or another doubt; inactive means no such curve, though single readings can be large; an effect the other way counts as inactive or inconclusive;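 further: plate controls were enzyme without inhibitor for no effect and buffer without enzyme for full effect; nearly all actives have a fitted effect of over 40% in size; top concentration of the series not given in the record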
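Purified cruzain at 1.5 nM, pre-incubated 15 min with compound at room temperature in 100 mM sodium acetate pH 5.5, 5 mM DTT, 0.00005% Triton X-100. Reaction started with 2 uM Z-FR-AMC; AMC fluorescence increase over 60 s gives rate.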
RE007 growth inh – qHTS Assay for Inhibitors of the HIV-1 protein Vpr. AID 651644, 2012. Potency, µM (highest dose often 92.2 µM), inactives show at the top dose activity change, negative = less growth. S. pombe RE007 Vpr strain, BacTiter-Glo ATP luminescence, 24 h; control for the full effect not named in the record. 0.21% of 360,000 active; active = well fitted falling curve with a large enough effect; inconclusive = small, poorly fitted or top-dose-only effect; inactive = no such curve, though single readings can be large or run the other way;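 further: on the % scale 0 is the no-effect control and ±100 the full control effect; nearly all actives have a fitted effect of over 50% in size; the assay follows cell death caused by Vpr and the record does not say whether a fall means rescue or toxicity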
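Fission yeast RE007 carrying one integrated HIV-1 vpr copy, seeded at OD 0.01 in PMG+AL medium with 23 nL pinned compound. Grown 24 h at 30 degrees; viability read by BacTiter-Glo luminescence after 5 min.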
NS1 function inh – qHTS Assay for Inhibitors of Influenza NS1 Protein Function. Potency, µM (series often up to 46.1 µM), for the others: top-dose activity, positive = more growth. S. cerevisiae slowed by influenza A NS1, growth recovery by OD600. 0.4% of 270,000 active. AID 2326, 2010; further: actives are rising curves; nearly all actives have a fitted effect of over 50% in size
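Recovery from NS1-induced slow growth read by OD600 in budding yeast switched to galactose assay medium (pH 6.0, -URA) at 1:100 dilution. Compound 23 nl per well; the matching strain lacking NS1 serves as control.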
* marks the source's active call; other numbers are inactive results; & = joins results of further samples; [ ] = remark or other dose. Unless noted, the call rests on the fitted dose curve; in most records, active means well fitted rising curve with a large enough effect; inconclusive means small, poorly fitted or top-dose-only effect; inactive means no such curve, though single readings can be large or run the other way. Potency means the concentration at half of the fitted maximal effect.

For O=c1[nH]c2ccc(S(=O)(=O)Nc3ccc(Cl)cc3)cc2o1 the results were SARS PLP yeast 1%, MARV entry inh 8%[46.1 µM], Lassa entry inh 10%[46.1 µM], 2A StopGo 35%[activator], RE007 growth inh -2% and NS1 function inh -3%.
O=C(Nc1cccnc1)c1cccc(NC(=O)c2ccco2)c1 was read as SARS PLP yeast 8%, MARV entry inh 14%, Lassa entry inh 1%, Cruzain Triton 0.9%, 2A StopGo -13%, Cruzain inh noDet -12%, RE007 growth inh 19% and NS1 function inh 3%.
For Cc1ccc2nc(N(CCCN(C)C)C(=O)CCc3ccccc3)sc2c1 the results were SARS PLP yeast -28%, MARV entry inh inconclusive, Lassa entry inh inconclusive, Cruzain Triton -4.4%, 2A StopGo -6%, Cruzain inh noDet 2%, RE007 growth inh 11% and NS1 function inh -11%.
`O=C(CCNC(=O)c1ccc(Br)o1)NCc1ccccc1Cl` gave SARS PLP yeast -1%, MARV entry inh -28%, Lassa entry inh -11%, Cruzain Triton 4.2%, 2A StopGo 13%, Cruzain inh noDet -8%, RE007 growth inh 9% and NS1 function inh 4%.
`CCc1cc(=O)oc2cc(OC(=O)c3ccco3)ccc12` gave SARS PLP yeast 20%, 2A StopGo -19%, RE007 growth inh -7% and NS1 function inh -7%.
`O=C(CCC(=O)N1CCOc2ccc(Cl)cc21)NCCN1CCOCC1` gave SARS PLP yeast -2%, 2A StopGo -16%, RE007 growth inh -3% and NS1 function inh -4%.
For COc1ccc(NC(=O)CCS(=O)(=O)c2cccc3nonc23)cc1 the results were SARS PLP yeast -6%, MARV entry inh 1%[46.1 µM], 2A StopGo 22% and RE007 growth inh 19%.
Screening O=C(COC(=O)Cn1c(C(F)(F)F)nc2ccccc21)Nc1ccc2c(c1)OCCO2 returned SARS PLP yeast 0%, MARV entry inh 18%, Lassa entry inh 30%, Cruzain Triton -9.8%, 2A StopGo -3%, Cruzain inh noDet 10%, RE007 growth inh 3% and NS1 function inh 4%.
COc1ccc(C2CC(c3cccs3)=NN2C(=O)CSc2nc(=O)n3ccc(C)cc3n2)cc1 (stereo not drawn) was read as SARS PLP yeast 5%, MARV entry inh inconclusive, Lassa entry inh -14%, 2A StopGo -3% and RE007 growth inh 15%.
Screening N#C/C(=C\c1cccnc1)C(=O)NC1CCCCC1 returned SARS PLP yeast -46%, MARV entry inh 6%, Lassa entry inh 0%, Cruzain Triton -5.3%, 2A StopGo inconclusive, Cruzain inh noDet 1%, RE007 growth inh -12% and NS1 function inh -29%.
`CCCC(=O)N1CCN(c2ccc(NC(=O)c3cccs3)cc2)CC1` gave SARS PLP yeast -2%, MARV entry inh 0%, Lassa entry inh -2%, 2A StopGo 24% and RE007 growth inh -9%.
For COC(=O)c1sc2nc(SCc3ccccc3C#N)n(N)c(=O)c2c1C the results were SARS PLP yeast 12%, MARV entry inh 9%, Lassa entry inh 13%, Cruzain Triton -8.0%, 2A StopGo -17%, Cruzain inh noDet 32µM*, RE007 growth inh 11% and NS1 function inh 19%.
COc1cccc(NC(=O)C2CC(=O)N(Cc3ccc(C)cc3)C2)c1 (stereo not drawn) was read as SARS PLP yeast 2%, 2A StopGo 0%, RE007 growth inh 0% and NS1 function inh 6%.
For O=C(CCSc1ccccc1Cl)NNC(=O)c1ccncc1 the results were SARS PLP yeast 3%, MARV entry inh 17%, Lassa entry inh 5%, 2A StopGo -19% and RE007 growth inh -3%.
Screening Cc1ccc(N2C(=O)SC(Cc3ccccc3)C2=O)cc1 (stereo not drawn) returned SARS PLP yeast 0%, MARV entry inh inconclusive, Lassa entry inh -24%, 2A StopGo 14%, RE007 growth inh -16% and NS1 function inh -5%.
O=C(N/N=C/c1ccc(N2CCOCC2)cc1)C1COc2ccccc2O1 (stereo not drawn) was read as SARS PLP yeast 1%, 2A StopGo -4%, RE007 growth inh -7% and NS1 function inh -13%.
Cc1nn(Cc2ccccc2)c(C)c1C(=O)NC1CCCc2ccccc21 (stereo not drawn) was read as SARS PLP yeast 9%, MARV entry inh -8%, Lassa entry inh 1%, Cruzain Triton -6.2%, 2A StopGo -23%, Cruzain inh noDet 9%, RE007 growth inh 4% and NS1 function inh -12%.
`CCOC(=O)N1CCN(C(=O)c2cc(-n3cnnc3)ccc2Cl)CC1` gave SARS PLP yeast -3%, MARV entry inh 8%, Lassa entry inh 3%, Cruzain Triton -7.0%, 2A StopGo -17%, Cruzain inh noDet 9%, RE007 growth inh 3% and NS1 function inh -3%.
`O=C(O)c1cccnc1SCc1cn2cc(Br)ccc2n1` gave SARS PLP yeast 0%, MARV entry inh -4%[46.1 µM], Lassa entry inh 1%, 2A StopGo 12% and RE007 growth inh -26%.
CNC(=O)c1cc(Nc2nnc(-c3ccc(O)cc3)c3ccccc23)ccc1OC was read as SARS PLP yeast -1%, MARV entry inh inconclusive, Lassa entry inh inconclusive, Cruzain Triton -8.2%, 2A StopGo -5%&-14%, Cruzain inh noDet -5%, RE007 growth inh 10% and NS1 function inh -1%.
Screening CCn1c(Cc2ccccc2)nnc1SCc1cccc(C(=O)O)c1 returned SARS PLP yeast 1%, MARV entry inh -13%, Lassa entry inh inconclusive, Cruzain Triton -0.2%, 2A StopGo 21%, Cruzain inh noDet -5%, RE007 growth inh 8% and NS1 function inh 13%.
`CN1CCN(CC(=O)Nc2ccccc2Oc2ccccc2)CC1` gave SARS PLP yeast -1%, 2A StopGo -17%, RE007 growth inh -2% and NS1 function inh 3%.
COc1ccc(/C=C(\C#N)c2nc3ccccc3n2C)c(OC)c1 was read as Lassa entry inh inconclusive, Cruzain Triton -3.9%, 2A StopGo 35%[activator] and Cruzain inh noDet 1%.
`Cn1c(C(=O)Nc2ccc3c(c2)OCO3)cc2c(=O)n(C)c3ccccc3c21` gave SARS PLP yeast 7%, Cruzain Triton -0.5%, 2A StopGo 0%, Cruzain inh noDet inconclusive, RE007 growth inh 2% and NS1 function inh 4%.
`N#Cc1ccc(/C=C/C(=O)O)cc1` gave SARS PLP yeast 0%, 2A StopGo -7%, RE007 growth inh 9% and NS1 function inh 3%.
`Cc1csc(=Nc2cccnc2)n1Cc1ccco1` gave SARS PLP yeast 0%, MARV entry inh 22%[46.1 µM], Lassa entry inh inconclusive, 2A StopGo -23% and RE007 growth inh 20%.
For COc1c(/C=N/Nc2ccc([N+](=O)[O-])cc2[N+](=O)[O-])c(C)nn1-c1ccccc1 the results were SARS PLP yeast 1%, MARV entry inh 14%, Lassa entry inh -3%, Cruzain Triton -0.5%, 2A StopGo -4%, Cruzain inh noDet 3%, RE007 growth inh 7% and NS1 function inh -7%.
CCN1CCN(C(=O)c2ccc(OC)c(S(=O)(=O)Nc3ccc(C)cc3)c2)CC1 was read as SARS PLP yeast -3%, MARV entry inh 16%[46.1 µM], Lassa entry inh 20%[46.1 µM], 2A StopGo 19% and RE007 growth inh -3%.
For O=C(c1ccco1)N1CCN(C(c2cccs2)c2nnnn2C2CCCCC2)CC1 (stereo not drawn) the results were SARS PLP yeast 8%, MARV entry inh 0%, Lassa entry inh -11%, Cruzain Triton 4.2%, Cruzain inh noDet -7%, RE007 growth inh -23% and NS1 function inh 1%.
O=C(NCc1cccc(Cl)c1)c1cc2ccc3cccnc3c2[nH]1 was read as Lassa entry inh 24%[46.1 µM], Cruzain Triton -6.0%, 2A StopGo 29% and Cruzain inh noDet -20%.
`COC(=O)c1ccc(COc2ccc(/C=C(\C#N)c3nc4ccccc4[nH]3)cc2OC)o1` gave SARS PLP yeast 26%, MARV entry inh -13%, Lassa entry inh -27%, Cruzain Triton 1.3%, 2A StopGo -16%, Cruzain inh noDet 14%, RE007 growth inh -8% and NS1 function inh 17%.
`COc1ccc2[nH]c(=O)c(CN(C(=O)c3ccco3)C(C)C)cc2c1` gave SARS PLP yeast -3%, MARV entry inh 7%[46.1 µM], Lassa entry inh -7%[46.1 µM], 2A StopGo -2%, RE007 growth inh 7% and NS1 function inh -1%.
O=c1nc(N2CCCCC2)nc2n1CCO2 was read as SARS PLP yeast -1%, MARV entry inh 7%, Lassa entry inh inconclusive, Cruzain Triton -0.8%, 2A StopGo -5%, Cruzain inh noDet -5%, RE007 growth inh 7% and NS1 function inh 6%.
Screening CCCc1cc(=O)n2[nH]cc(-c3ccc(Cl)cc3)c2n1 returned MARV entry inh inconclusive, Lassa entry inh inconclusive, 2A StopGo inconclusive, RE007 growth inh -8% and NS1 function inh 12%.
For CCCNC(=O)c1onc(CSc2ccccn2)c1C(=O)NCCC the results were SARS PLP yeast 3%, 2A StopGo -19%, RE007 growth inh -19% and NS1 function inh -2%.
For COc1ccccc1C1NC(=O)NC(C)=C1C(=O)Nc1cccc(C)c1C (stereo not drawn) the results were SARS PLP yeast 10%, Cruzain Triton -4.2%, 2A StopGo -11%, Cruzain inh noDet 2%, RE007 growth inh -8% and NS1 function inh -13%.
`Cc1ccc(CNC(=O)CC2C(=O)Nc3c2c(=O)n(C)c(=O)n3Cc2ccccc2)cc1` (stereo not drawn) gave SARS PLP yeast -3%, MARV entry inh -24%[46.1 µM], Lassa entry inh -24%, Cruzain Triton 2.8%, 2A StopGo -14%, Cruzain inh noDet -5%, RE007 growth inh 5% and NS1 function inh 5%.
`OCCN(Cc1ccccc1)C(=S)NC1CCCCC1` gave SARS PLP yeast 0%, MARV entry inh -4%, Lassa entry inh 10%, 2A StopGo 23% and RE007 growth inh -17%.
Cc1csc(CN(C)C(=O)c2cn(Cc3cccc4ccccc34)nn2)n1 was read as SARS PLP yeast -1%, MARV entry inh 28%, Lassa entry inh 1%, 2A StopGo 23%, RE007 growth inh -4% and NS1 function inh -35%.
`CC(C)Cc1nc(N2CCN(C(=O)c3ccco3)CC2)c(C#N)c2c1CCCC2` gave SARS PLP yeast -57%, 2A StopGo inconclusive, RE007 growth inh 9% and NS1 function inh -11%.
